StopGo reporter = High Throughput Screening for Foot and Mouth Disease Virus Antivirals. actives 1.2% (n = 410,000). Potency, µM (doses to about 57.9 µM), inactives show top-dose signal change, negative = less light. human cells with a luciferase reporter of 2A StopGo recoding; control for the full effect not named in the record. AID 1159524, 2015; active = well fitted falling curve with a large enough effect; inconclusive = small, poorly fitted or top-dose-only effect; inactive = no such curve, though single readings can be large or run the other way; tested in HEK293T cells; also: nearly all actives have a fitted effect of over 45% in size; luciferase light after 4 h
RE007 growth inh = qHTS Assay for Inhibitors of the HIV-1 protein Vpr; actives 0.21% (n = 360,000); AID 651644, 2012; Potency, µM (series often up to 92.2 µM), for inactives: at the top dose activity change, negative = less growth; S. pombe RE007 Vpr strain, BacTiter-Glo ATP luminescence, 24 h; control for the full effect not named in the record; active = well fitted falling curve with a large enough effect; inconclusive = small, poorly fitted or top-dose-only effect; inactive = no such curve, though single readings can be large or run the other way;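 also: nearly all actives have a fitted effect of over 50% in size; the assay follows cell death caused by Vpr and the record does not say whether a fall means rescue or toxicity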
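Fission yeast RE007 carrying one integrated HIV-1 vpr copy, seeded at OD 0.01 in PMG+AL medium with 23 nL pinned compound. Grown 24 h at 30 degrees; viability read by BacTiter-Glo luminescence after 5 min.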
Numbers without * were called inactive; ? = inconclusive; [ ] = remark or other dose. % is scaled to controls: 0 for no effect and ±100 for the full control effect; potency is read from the fitted curve at half-maximal effect. An excerpt; the hit share may differ from the screen's.

SMILES | StopGo reporter | RE007 growth inh
Cc1ccc(OC(=O)N(C)C[C@@H]2OCc3cnnn3CCCC(=O)N([C@H](C)CO)C[C@@H]2C)cc1 | -21% | -11%
CCCCNc1ccc2c(c1)C1CC2CCN1C(=O)OCc1ccccc1 (configuration not stated) | 47%[activator] | -6%
COc1ccc(C(=O)NC(C)Cc2c[nH]c3ccccc23)cc1 (configuration not stated) | 36%[activator] | -5%
COc1cccc(NC(=O)Nc2nnc([C@@H]3C[C@H](O)[C@@H](CO)O3)s2)c1 | -13% | 244%
CCOC1=C2[C@H](c3ccc(Cl)cc3)N(S(=O)(=O)c3ccc(C)cc3)C[C@H]2n2c(=O)n(-c3ccccc3)c(=O)n2C1 | 52%[activator] | 10%
C=CCNc1nc(Nc2ccc(OC)c(OC)c2)c2sc(-c3ccccc3)cc2n1 | 0% | 2%
OC(c1cc(F)cc(Cl)c1)c1ncc(-c2ccccc2C(F)(F)F)[nH]1 (configuration not stated) | 24% | -11%[18.4 µM]
CCCCN1C(=O)C(CC(=O)NCc2ccco2)CC(C(=O)N2CCCCCC2)=C1C (configuration not stated) | -21% | 7%
N#Cc1cccc(NC(=O)c2cc(C3CCCCN3C(=O)CCCc3ccccc3)on2)c1 (configuration not stated) | ? | 0%
CC1(c2nc3ccccc3[nH]2)CCC(=O)N1Cc1ccccn1 (configuration not stated) | -22% | 4%
CC1(C)CC(=O)C=C(C(=O)N2CCCC(C(=O)c3cc(F)ccc3F)C2)O1 (configuration not stated) | 1% | -3%
Cc1ccc(S(=O)(=O)N2Cc3cc(-c4cccc(F)c4)ccc3-n3nncc3C2)cc1 | -15% | 20%
C[C@@H]1CN([C@H](C)CO)C(=O)CCCn2nncc2CO[C@H]1CN(C)Cc1ccccc1C(=O)O | -16% | 4%
COc1ccc(CNC(=O)Nc2nc(C(N)Cc3ccc(C(F)(F)F)cc3)cs2)cc1 (configuration not stated) | -17% | 5%[18.4 µM]
CN(C)C(=O)c1cccc(-c2cnc3c(NC=O)cc(-c4ccc(F)cc4)cn23)c1 | ? | -8%
C(=C\c1ccccc1)/CN1CCN(C(c2cc3ccccc3o2)c2nnnn2C2CCCCC2)CC1 (configuration not stated) | 8% | 18%
CC1=C(C(=O)N(C(C)C)C(C)C)CC(CC(=O)NCc2cccs2)C(=O)N1Cc1ccccc1 (configuration not stated) | 7% | 18%
COc1ccc(OC)c(NC(=O)c2cc(-c3cc(F)ccc3OCC3CCCO3)n[nH]2)c1 (configuration not stated) | ? | -5%
O=C(Nc1ccc2c(c1)OCO2)c1csc([C@@H]2O[C@H](CO)[C@H](O)[C@H](O)[C@H]2O)n1 | -9% | -1%
C[C@H]1CN([C@@H](C)CO)C(=O)c2cc(Br)cnc2O[C@H]1CN(C)C(=O)C1CCC1 | 0% | 19%
CN(C(=O)c1cccc(NC(=O)Cc2ccc(NC(=O)C3CCN(C(=O)C4CCCCC4)CC3)cc2)c1)C1CCC1 | 0% | 64%
CC(=NCc1ccccc1)c1ccc(O)cc1O | 3% | -7%
COc1ccc(OC)c(NC(=O)C2(C)CCN2Cc2ccccc2OC(F)F)c1 (configuration not stated) | 0% | 1%
COc1cccc(OC)c1NC(=O)c1ccc(-c2cc(Cl)ccc2Cl)o1 | -25% | 5%[18.4 µM]
COC(=O)C1=C(c2cccc(OC)c2OC)C[C@@H]2CC[C@H]1N2C(=O)NCCNC(C)=O | -14% | 3%
Nc1nc2ncccn2c1-c1ccc(F)cc1 | -7% | 9%
CC(C)NC(=O)C1(C)CCN1C(=O)c1ccc2c(c1)OCO2 (configuration not stated) | -16% | -9%[18.4 µM]
CC1(O)C(c2ccccc2)=Nc2ccccc21 (configuration not stated) | 57%[activator] | -18%
COc1ccc(C(C)C)cc1-c1cccc2nncn12 | -19% | 14%
CN1CCN(c2ccc3c(c2)S(=O)(=O)c2ccccc2C3=O)CC1 | 55%[activator] | -24%
Cc1nn(-c2nccs2)c2c1C(=O)CC(C)(C)C2Br (configuration not stated) | 8% | -9%
COCCNC(=O)c1nn2c(C(F)(F)F)cc(-c3ccccc3)nc2c1Br | -23% | -13%
CCOc1ccc(C(C)NC(=O)c2cccs2)cc1OCC (configuration not stated) | -25% | 10%
COc1ccc(NC(=O)c2cc(C3CCCCN3C(=O)OCCF)on2)c(C)c1 (configuration not stated) | 39%[activator] | 5%
Cc1cnc(C)c(Nc2nc(C(N)Cc3ccc(Cl)cc3)cs2)n1 (configuration not stated) | -18% | -20%[18.4 µM]
CC(=O)NC(C)(c1ccccc1)c1nc(-c2ccncc2)cs1 (configuration not stated) | -14% | -1%[18.4 µM]
O=C(C1CCCCC1)N1C[C@@H](O)[C@H](n2cc(-c3ccc(F)cc3)nn2)C[C@@H]1c1ccccc1 | 33%[activator] | -7%
COc1cccc(Nc2nc(C(N)c3ccccc3Cl)cs2)n1 (configuration not stated) | -3% | -2%[18.4 µM]
CC(=O)N1CCN(C(=O)c2[nH]c(C(F)(F)F)nc2-c2ccccc2)CC1 | -21% | 7%
CNC[C@@H]1OCc2ccccc2-c2ccccc2C(=O)N([C@H](C)CO)C[C@@H]1C | -17% | 7%
Cc1ccccc1S(=O)(=O)N1C(c2ccc(Cl)c(Cl)c2)CC=C(C(=O)O)C1c1cccc(Br)c1 (configuration not stated) | -15% | 1%
Cc1ccc(-c2ccccc2C2=CC(=O)CC(C)(C)C2=O)cc1 | -1% | -9%
CCN(CC)c1ccc(C(=O)NNC(=O)Cn2c(=O)cnc3ccccc32)cc1 | -14% | 8%
COCCN1C(=O)CSCC1(C)C(=O)Nc1ccc2c(c1)OCCO2 (configuration not stated) | -21% | 12%
COc1ccccc1Cc1c(-c2ccc(Cl)cc2)nc2c(Cl)cc(C(F)(F)F)cn12 | -20% | 13%
CC(=O)OC1C([N+]2(C)CCCCC2)C[C@H]2C3CC[C@H]4C[C@H](OC(C)=O)C([N+]5(C)CCCCC5)CC4(C)[C@H]3CCC12C (some centres not stated) | -21% | -18%[18.4 µM]
CC(C)CC(CO)N1CCN(C(=O)c2ccc(Cl)c(Cl)c2)CCC1=O (configuration not stated) | -21% | -8%
CCCn1c(N)c(C(=O)CSc2nnc(Cc3cccs3)n2C2CC2)c(=O)[nH]c1=O | -19% | 7%
CC(C)(C)S(=O)N1Cc2cc(CO)cc(CCO)c2[C@H]1CCO (some centres not stated) | -20% | 4%
C=CCN1C(=O)c2ccc(C(=O)OCC(=O)N(CC)c3c(N)n(Cc4ccccc4)c(=O)[nH]c3=O)cc2C1=O | -15% | -14%
O=C(CCc1ccccc1)N1Cc2cc(-c3ccccc3)ccc2-n2nncc2C1 | -21% | 0%
COc1cccc(C(NC(C)=O)c2nc(-c3ccc(OC)nc3)cs2)c1 (configuration not stated) | -5% | -3%
CN1OC[C@@H]2CN(S(=O)(=O)c3cccc(C(F)(F)F)c3)[C@H](c3ccc(N4CCCCC4)cc3)C[C@@H]21 | -4% | 3%
COc1cccc(C(NC(C)=O)c2nc(-c3ccncc3)cs2)c1 (configuration not stated) | -18% | -4%[18.4 µM]
COc1cc(CC(=O)N2c3ccccc3N=C(c3ccccc3)C2C(=O)NCc2ccccc2)cc(OC)c1 (configuration not stated) | 9% | -6%
CCOC(=O)C1=CCC(c2ccccc2Cl)N(S(=O)(=O)c2ccc(C)cc2)C1 (configuration not stated) | -2% | 13%
Cc1noc(C)c1C(=O)OC(C)C(=O)c1ccc(C(C)(C)C)cc1 (configuration not stated) | -15% | 3%
CCOc1ccc(S(=O)(=O)N2CCC(C(=O)Nc3ccc(C)c(S(=O)(=O)N4CCOCC4)c3)CC2)cc1 | -23% | 1%
CCCCN(C=O)c1c(CC)nc2ccc(C(=O)NCc3cccs3)cn12 | 14% | 9%[18.4 µM]
CCCCCCCCN1C(=O)[C@H](CC(=O)N2CCSCC2)C[C@@]2(C(=O)OC)CC(C)(C)CC=C12 | -14% | -19%

Remaining list, next part.
SMILES | StopGo reporter | RE007 growth inh
C=CC1CN(C(=O)OCC(Cl)(Cl)Cl)C2CC3c4ccc(OC)cc4NC3C3CC1C2CO3 (configuration not stated) | ? | 4%
CC1(C)COC(Cc2ccccc2)=N1 | -12% | -13%
O=C(COc1ccc(CNC[C@H]2O[C@@H](n3ccc(=O)[nH]c3=O)[C@H](O)[C@@H]2O)cc1)Nc1nccs1 | -17% | -16%
O=C(Cc1cccc(NC(=O)C2CCN(C(=O)C3CCCC3)CC2)c1)Nc1cccc(C(=O)N2CCOCC2)c1 | -12% | 7%
CC(C)Oc1ccc(CN2CCC2(C)C(=O)Nc2cccc(Oc3ccccc3)c2)cc1 (configuration not stated) | ? | -8%
COc1cccc(/C=C2\SC(=S)N(CCCC(=O)Nc3cccc(C(=O)O)c3)C2=O)c1 | 7% | -10%
On1ccccc1=S | ? | 4.5µM*
O=c1c2ccccc2oc2ccc(-c3ccc4[nH]ccc4c3)cc12 | 38%[activator] | 11%
Cc1cccc(C)c1NC(=O)C1c2ccccc2OCC(=O)N1Cc1ccccc1 (configuration not stated) | -21% | 14%
COc1ccc(Cl)cc1-c1cc(C(=O)NCc2cccs2)[nH]n1 | 18% | 11%
CCN(CC)S(=O)(=O)c1cccc(NC(=O)c2ccc(S(=O)(=O)N3CCCC3)cc2)c1 | ? | 5%
CC1=C(C(=O)N2CCOCC2)CC(CC(=O)NCCCN(C)C)C(=O)N1Cc1ccc(C(C)(C)C)cc1 (configuration not stated) | -12% | 5%
CCC(CC)CC1CN2CCc3cc(OC)c(OC)cc3C2CC1(O)CC (configuration not stated) | -20% | -9%
Nc1nc2ccc(Cl)cc2cc1C(=O)NCc1ccc(Oc2ccccc2)cc1 | -15% | -4%
CCC[C@H]1CN(c2ccccc2)C(=O)[C@@H]1CC(=O)Nc1ccc(Br)cc1 | 9% | 5%
COc1ccccc1CCC(=O)Nc1ccc2c(c1)c(=O)n(C)n2-c1cccs1 | -3% | 11%
CCN(CC)CCCn1c2c(c(SCC(=O)Nc3cc(C)cc(C)c3)nc1=O)CCC2 | -12% | 6%
COc1ccc(CNC(=O)c2sc(=O)n(Cc3cc(C(C)=O)ccc3OC)c2C)cc1 | -17% | -16%[18.4 µM]
CCS(=O)(=O)N1CCC2(CC1)OCCN2S(=O)(=O)c1ccccc1 | -11% | -8%
Cc1onc(-c2ccccc2)c1C(=O)Nc1ccc(NC(=O)c2c(-c3ccccc3)noc2C)cc1 | -17% | 0%
Cc1noc(C)c1-c1ccc(C(=O)N2CCN(C)CC2)c2occc12 | -16% | -16%
CCOc1ccc(-n2c(=S)sc3c(=O)[nH]c(SCC(=O)NC4CCCCC4)nc32)cc1 | -17% | 1%
N=c1c2ccccc2nc2n1CCCCCCC2 | -9% | 1%
O=C(O)Cc1ccc(NC(=O)c2ccc3c(c2)C(=O)N(Cc2ccccc2)C3=O)cc1 | -1% | -12%
CN(C(=O)c1cccc(NC(=O)Cc2ccc(NC(=O)C3CCCN(C(=O)c4ccccc4)C3)cc2)c1)C1CCC1 (configuration not stated) | -15% | 3%
O=C(NC1CCCC1)C1C(c2ccc(C(F)(F)F)cc2)=Nc2ccccc2N1C(=O)c1ccccc1 (configuration not stated) | 46%[activator] | -11%
COCCNc1ncnc2c1ncn2[C@H]1CN(Cc2ccco2)C[C@@H](CO)O1 | -4% | 1%
CCC(c1nnnn1-c1ccc2c(c1)OCCO2)N1CCN(c2ccc(C(F)(F)F)cc2[N+](=O)[O-])CC1 (configuration not stated) | -2% | 3%
COc1ccccc1NC(=O)N(C)C[C@@H]1OCc2cn(nn2)CCCC(=O)N([C@H](C)CO)C[C@H]1C | -9% | -9%
Cc1ccc(NC(=O)CSCC(=O)Nc2cc(S(=O)(=O)N3CCOCC3)ccc2OC(C)C)cc1 | 8% | 14%
O=C1c2ccccc2S(=O)(=O)c2cc(N3CCC4(CC3)OCCO4)ccc21 | 0% | -11%
COc1cc(CN2C[C@@H](CO)O[C@@H](n3cnc4c(NC(C)C)ncnc43)C2)cc(OC)c1OC | -14% | 5%

Random excerpt: 2 entries already listed, in no set order.
SMILES | StopGo reporter | RE007 growth inh
Cc1ccccc1S(=O)(=O)N1C(c2ccc(Cl)c(Cl)c2)CC=C(C(=O)O)C1c1cccc(Br)c1 (configuration not stated) | -15% | 1%
COc1ccccc1Cc1c(-c2ccc(Cl)cc2)nc2c(Cl)cc(C(F)(F)F)cn12 | -20% | 13%

Whole records as entered above.
Cc1ccc(-c2ccccc2C2=CC(=O)CC(C)(C)C2=O)cc1 as listed: StopGo reporter: -1%; RE007 growth inh: -9%
COc1ccccc1Cc1c(-c2ccc(Cl)cc2)nc2c(Cl)cc(C(F)(F)F)cn12 as listed: StopGo reporter: -20%; RE007 growth inh: 13%
COc1cccc(C(NC(C)=O)c2nc(-c3ccc(OC)nc3)cs2)c1 (configuration not stated) as listed: StopGo reporter: -5%; RE007 growth inh: -3%
